# Source: PubChem BioAssay
# Rce1 inh: inhibitors of yeast Ras-converting enzyme | 290,000 tested, 0.27% active | yeast membranes, quenched prenylated peptide cleavage fluorescence | Q03530 | calls only | AID 2563;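 active = fall in fluorescence gain of 50% or more versus controls, with final raw signal at or below 3038400; inconclusive = same 50% fall but final raw signal above 3038400; inactive = fall in fluorescence gain under 50%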;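 note: plate controls were neutral control wells for no effect and wells lacking membranes for full effect; tested at 10 µM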
# Target sequence (Q03530 whole entry, looked up): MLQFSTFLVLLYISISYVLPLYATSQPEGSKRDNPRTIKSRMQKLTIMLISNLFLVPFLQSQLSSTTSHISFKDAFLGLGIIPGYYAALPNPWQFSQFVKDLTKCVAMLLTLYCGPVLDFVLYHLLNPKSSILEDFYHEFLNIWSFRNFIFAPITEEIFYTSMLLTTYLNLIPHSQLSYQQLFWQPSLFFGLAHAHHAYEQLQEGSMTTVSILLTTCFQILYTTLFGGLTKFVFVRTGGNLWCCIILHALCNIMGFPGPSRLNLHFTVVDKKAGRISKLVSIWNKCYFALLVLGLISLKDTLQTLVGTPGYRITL
# UUG fidelity: modulators of start codon recognition fidelity in yeast. S. cerevisiae UUG-firefly luciferase reporter, luminescence/redox ratio. activity score, % at 18.7 µM. 350,000 tested, 0.13% active. AID 602363;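 active = replicate mean at a twofold rise or more, about +100% in these data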;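 note: firefly luciferase made from a UUG start codon reports start codon fidelity; reporter light over untreated wells divided by growth signal over untreated wells; some hits fall short of that in this replicate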
# Env fusion inh: blocks HIV Env-driven cell-cell fusion; 360,000 tested, 1.1% active; HeLa-JRFL Env/CEM21 cell fusion, luciferase; inhibition, % at 12.3 µM; AID 651610;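 active = mean replicate inhibition score of at least 50 and every replicate individually at or above 50; inconclusive = only one of the two criteria met; inactive = mean below 50 and not all replicates reaching 50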;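 note: 0% = plate neutral controls and 100% = maraviroc near 300 nM; one replicate is shown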
# eIF4H FP inh: inhibitors of RNA binding by human eIF4H | 290,000 tested, 0.94% active | eIF4H fluorescence polarization binding assay | inhibition, % at 35 µM;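 active = 50% or more with normal probe brightness, or confirmed in later tests; inconclusive = above 50% with abnormal brightness, or retests that disagree; inactive = below 50% or failed in later tests; about a fifth of its hits are not listed in these tables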;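 note: calls also rest on retests at 20 µM and on dose response follow-up; 0% = protein and probe with vehicle and 100% = probe without protein; strong numbers were not always called active; many hits fall short of the cut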
# MT1-MMP act inh: inhibitors of human MT1-MMP activation; HT1080 RFP-PRO-GFP cells, GFP/RFP ratio fluorescence, overnight; percent of plate control window, DMSO zero; GFP/RFP ratio change, % at 20 µM; 360,000 tested, 0.061% active; P50281;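 active = GFP/RFP ratio change of at least 30% with cell ATP level not reduced by more than half and red fluorescence within 50% of control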; note: strong numbers were not always called active
#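 Assay system: HT1080 cells carrying an RFP-PRO-GFP reporter | Dosing: Single dose of 20 µM compound, 1% DMSO final | Incubation: Cells overnight before dosing, compound overnight, 37 °C, 5% CO2 | Evaluation: GFP/RFP fluorescence ratio | Control set: DMSO and RFP-L50D-GFP cell wells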
# CSC inhib: cancer stem cell inhibition. cancer stem cell-like cells viability, luminescence. inhibition, % at 7.5 µM. 300,000 tested, 1.1% active. AID 2717;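 active = mean at 75% or more and at least half the replicates too; inconclusive = mean and replicates disagree; tested in HMLE shEcad cells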;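 note: 0% = median of negative and 100% = median of positive control wells; the first replicate is given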
# PABP polyA inh: blocks human PABP binding to poly(A) RNA. P11940. fluorescence polarization. inhibition, % at 35 µM. 290,000 tested, 1% active. AID 2014;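 active = 50% or more with normal probe brightness, or confirmed in later tests; inconclusive = above 50% with abnormal brightness, or retests that disagree; inactive = below 50% or failed in later tests; about a fifth of its hits are not listed in these tables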;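 note: calls also rest on retests at 20 µM and on dose response follow-up; controls were probe without protein and protein plus probe with vehicle; some compounds called inactive have numbers as strong as hits; many hits fall short of the cut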
# Target sequence (P11940 whole entry, looked up): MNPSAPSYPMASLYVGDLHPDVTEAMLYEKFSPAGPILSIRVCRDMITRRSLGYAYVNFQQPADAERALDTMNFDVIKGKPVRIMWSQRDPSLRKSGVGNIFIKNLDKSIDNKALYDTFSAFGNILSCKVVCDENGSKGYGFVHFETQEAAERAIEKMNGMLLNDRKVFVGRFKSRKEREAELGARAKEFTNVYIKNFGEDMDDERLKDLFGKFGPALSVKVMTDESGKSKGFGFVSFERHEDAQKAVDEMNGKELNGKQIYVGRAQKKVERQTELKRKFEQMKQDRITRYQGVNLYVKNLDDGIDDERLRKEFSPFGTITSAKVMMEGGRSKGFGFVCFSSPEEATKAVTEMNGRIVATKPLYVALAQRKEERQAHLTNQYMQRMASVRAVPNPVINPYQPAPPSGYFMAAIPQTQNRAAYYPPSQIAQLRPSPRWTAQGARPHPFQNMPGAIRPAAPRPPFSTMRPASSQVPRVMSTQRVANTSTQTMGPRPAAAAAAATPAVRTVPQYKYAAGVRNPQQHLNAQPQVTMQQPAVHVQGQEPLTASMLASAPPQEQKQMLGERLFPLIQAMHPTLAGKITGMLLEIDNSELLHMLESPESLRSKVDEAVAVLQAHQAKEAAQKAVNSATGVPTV
# eIF4H FP inh retest: recorded beside eIF4H FP inh, whose call it bears; inhibition, %; compound at 20 µM; confirmation average;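 mean of two retest wells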
# PABP polyA inh retest: further read-out of PABP polyA inh, marked with its call; inhibition, %; compound at 20 µM; confirmation repeats;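 mean of two retest wells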
# MT1-MMP act inh RFP: further read-out of MT1-MMP act inh, marked with its call; RFP signal change, %; measured here: RFP expression control read;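 0 = vehicle wells; hits needed this value within 50% of zero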
# * = called active by the depositor; i = inactive; ? = inconclusive; nt = no result given.
# The opening 4 compounds as a preview:
SMILES,Rce1 inh,UUG fidelity,Env fusion inh,eIF4H FP inh,MT1-MMP act inh,MT1-MMP act inh RFP,CSC inhib,PABP polyA inh,others
C/C(=N/NC(=O)c1ccoc1C)c1ccc(NC(=O)C2CCCC2)cc1,i,nt,-5,5,3,3,19,8,
O=C(OCc1cccnc1)C1=Cc2ccccc2OC1,i,nt,-12,1,2,1,13,-2,
CC(CNC(=O)C(C)C)NC(=O)C(C)C (stereo not given),i,-4,-52,2,-1,1,-2,4,
COCCOC(=O)C1=C(C)NC(=O)NC1/C=C/c1ccccc1 (stereo not given),i,nt,-13,11,0,2,-13,5,

# Main list, from the first entry:
SMILES,Rce1 inh,UUG fidelity,Env fusion inh,eIF4H FP inh,MT1-MMP act inh,MT1-MMP act inh RFP,CSC inhib,PABP polyA inh,others
C/C(=N/NC(=O)c1ccoc1C)c1ccc(NC(=O)C2CCCC2)cc1,i,nt,-5,5,3,3,19,8,
O=C(OCc1cccnc1)C1=Cc2ccccc2OC1,i,nt,-12,1,2,1,13,-2,
CC(CNC(=O)C(C)C)NC(=O)C(C)C (stereo not given),i,-4,-52,2,-1,1,-2,4,
COCCOC(=O)C1=C(C)NC(=O)NC1/C=C/c1ccccc1 (stereo not given),i,nt,-13,11,0,2,-13,5,
CC(C)CCN1C(=O)c2ccc(C(=O)NCc3ccco3)cc2C1=O,i,-11,nt,-12,2,-2,-3,-12,
O=C(NCc1cccnc1)c1csc([C@@H]2C[C@H](O)[C@@H](CO)O2)n1,nt,-27,0,nt,-1,4,nt,nt,
COc1ccccc1Cc1c(-c2ccc(F)cc2)nc2c(C)cc(Br)cn12,nt,20,41,nt,7,2,nt,nt,
CS(=O)(=O)N1CCCCC1c1cc(C(=O)Nc2ccccc2)no1 (stereo not given),nt,-18,-5,nt,2,3,nt,nt,
CCCc1ccc2oc(C(=O)N3CCN(C4CCS(=O)(=O)C4)CC3)c(C)c2c1 (stereo not given),i,-3,-10,-10,-1,-4,10,12,
Clc1ccc(Cn2ncc3c(NCc4ccco4)ncnc32)c(Cl)c1,i,nt,nt,10,nt,nt,60,4,
CN(C)CCCOC(=O)c1sc2ccccc2c1Cl,nt,nt,5,4,0,2,-7,8,
COc1ccccc1CNC(=O)Cn1cnnn1,i,-8,6,-8,-3,-2,-8,4,
Cc1ccc(NC(=O)c2ccccc2Cl)c(Cl)c1,i,-14,-182,5,-6,-3,2,16,
COc1ccccc1OCC(=O)Nc1ncc(C)s1,nt,-37,nt,nt,-1,0,-13,nt,
COc1ccc(NC(=O)C2=CC(c3ccco3)=NS(=O)(=O)N2C)cc1,i,5,42,-1,-8,-4,nt,-21,
COc1ccc(/C(C)=N/OCC(=O)N=Nc2c(O)[nH]c3ccccc23)cc1,i,nt,9,-8,-6,2,-7,-14,
Cc1nnc(N2CCCC(C(=O)NCc3ccc(OC(C)C)cc3)C2)c2nn(-c3ccccc3)c(C)c12 (stereo not given),i,-25,14,-9,-15,-6,-11,-1,
CN(C)S(=O)(=O)c1ccc(/C(O)=C2/C(=O)C(=O)N(Cc3cccnc3)C2c2cccs2)cc1 (stereo not given),i,nt,-20,-8,-1,3,-18,20,
COc1ccc(CNC(=O)Cc2ccc(OC)c(S(=O)(=O)N3CCOCC3)c2)cc1,i,-8,-21,-17,-4,1,-11,-2,
Cc1cccc(C)c1NC(=O)CN(C)C(=O)c1ccccc1OCc1ccc(F)cc1,i,13,-6,nt,-3,-1,-7,nt,
CCOc1ccc2[nH]c(=S)[nH]c2c1,i,-5,nt,-13,0,1,-8,6,
Cc1ccc(NC(=O)c2ncn(CCCNCc3ccccn3)n2)cc1C,nt,-17,3,nt,-2,-6,nt,nt,
Cc1noc(C)c1-c1ccc(C(=O)NCCC(F)(F)F)c2occc12,nt,19,2,nt,11,6,nt,nt,
NC(=O)C1CCN(C(=O)C2CCC(=O)N(Cc3ccc(Cl)cc3)C2)CC1 (stereo not given),i,-9,5,-3,-1,4,-5,2,
CCC(=O)Nc1cccc(NC(=S)NC(=O)c2ccc(Cl)cc2)c1,i,-4,nt,-6,-5,-20,-6,4,
Cc1ccc(C(=O)NCC(=O)O)s1,i,nt,-11,-4,2,7,23,-3,
O=C(Nc1cc(S(=O)(=O)N2CCOCC2)ccc1N1CCOCC1)c1ccc([N+](=O)[O-])s1,nt,-12,-5,nt,2,-6,-10,nt,
COc1ccc(NC(=O)c2cnc3sccn3c2=O)cc1,i,-20,-49,-20,1,0,-12,4,
Cc1cccc(C(=O)NC(=S)Nc2ccc(N3CCOCC3)cc2)c1,i,nt,3,-11,3,2,3,-13,
COCCOC(=O)c1c(NC(=O)CNc2ccc(C)c(F)c2)sc(C(N)=O)c1C,i,-11,7,-13,4,-18,-6,-3,
CC(C)[C@H](NC(=O)[C@@H]1Cc2ccccc2CN1C(=O)OC(C)(C)C)C(=O)NC1CCCC1,i,-7,-9,-6,nt,nt,9,-4,
Clc1ccc(Cn2ncc3c(NCc4ccccc4)ncnc32)c(Cl)c1,i,nt,5,-1,nt,nt,77*,1,
Cc1cc(C(=O)NN)c2cc(Br)ccc2n1,i,-9,nt,0,5,2,-7,-9,
CC(C)Cc1ccc(-c2cc3nc(NCCCn4ccnc4)ccn3n2)cc1,nt,-22,-18,nt,-2,-6,nt,nt,
O=C(O)CN1C(=O)N/C(=C\c2cccn2-c2ccc(P(=O)(O)O)cc2)C1=O,nt,10,32,nt,1,3,nt,nt,
COC1Cc2ccccc2N(C(N)=O)c2ccccc21 (stereo not given),i,nt,4,nt,0,1,6,nt,
COc1ccc(CN(C)Cc2c(O)ccc3cc(Br)ccc23)cc1OC,nt,-6,35,-11,6,-4,-9,21,
Cc1ccc(CSCC(=O)NCCCN2CCOCC2)cc1,i,1,11,-4,4,7,-4,-10,
CCOC(=O)c1sc(NC(=O)c2cccs2)nc1C,nt,-25,nt,-8,6,-5,nt,-10,
CC(=O)N/C(=C\c1ccc(F)cc1)C(=O)NC(C(=O)O)C(C)C (stereo not given),i,-25,19,-2,-4,-2,-8,-12,
CC(c1cccs1)N(Cc1ccco1)C(=O)Nc1ccc(Cl)c(Cl)c1 (stereo not given),i,-8,-85,6,-14,-14,34,-7,
CCNC(=O)n1cc(-n2cncn2)c(-c2ccccc2)n1,i,-16,-17,14,8,5,26,-3,
CC(=O)N1N=C(N)SC1c1cccc([N+](=O)[O-])c1 (stereo not given),i,nt,nt,-6,-1,2,1,-2,
C(=C\c1ccccc1)/C=N/Nc1nc2ccccc2[nH]1,i,nt,-357,15,13,-8,nt,-6,
Cc1c(C)n(C(=O)CN2CCN(c3ccccc3)CC2)c2ccccc12,i,-20,-107,2,0,0,10,-3,
COc1ccc(C)cc1NC(=O)C(OC(=O)CNC(=O)c1cccc(F)c1)c1ccccc1 (stereo not given),i,-11,4,-1,4,-3,-12,8,
O=C(Cn1cnc2ccccc2c1=O)Nc1nnc(SCc2ccccc2)s1,i,-15,nt,4,1,2,-2,10,
c1cc2c(cc1-n1cnnn1)OCO2,i,-5,12,-4,1,-1,-10,8,
CCc1nnc(NC(=O)C(=O)NCCOC(=O)c2ccccc2)s1,i,1,nt,3,3,3,-11,-2,
COc1ccc(NC(=O)N2C3CCCC2CC(NC(=O)C2CC2)C3)cc1 (stereo not given),i,-17,-10,-5,6,4,-26,13,

# Remaining list, next part:
SMILES,Rce1 inh,UUG fidelity,Env fusion inh,eIF4H FP inh,MT1-MMP act inh,MT1-MMP act inh RFP,CSC inhib,PABP polyA inh,others
COC(=O)c1ccccc1NC(=O)CNCCc1ccc(OC)c(OC)c1,i,-2,4,2,-2,1,1,-1,
NC1=NC[C@H](Cc2ccc(O)cc2)N1CCc1cccc2ccccc12,i,17,-8,-15,-2,-8,6,-12,
O=C(NCCO)Nc1ccc2nc(-c3ccco3)c(-c3ccco3)nc2c1,nt,nt,nt,?,nt,nt,1,?,
CN(CCc1ccccn1)c1ccc([N+](=O)[O-])cn1,i,-8,-3,3,-3,0,13,8,
COc1cccc(C(=O)NC2CCN(C(=O)N3CCCCC3)CC2)c1,i,-4,-21,-7,5,3,1,1,
CC(=O)N(Cc1ccc(Br)cc1)c1cccc(C)c1C,i,-7,-11,-3,-4,-1,65,-19,
CSc1ncccc1C(=O)OCc1ccc(Br)cc1,i,-13,-12,-1,1,-1,nt,-7,
COc1ccc(C)c2sc(NC(=O)c3cccc(N4C(=O)CCC4=O)c3)nc12,i,-21,-24,-2,-1,-1,17,16,
COCCCNC(=O)c1ccc(NC(C)=O)cc1,i,nt,-7,9,-1,-2,6,15,
CCCN(CC(=O)Nc1ccc(F)c(F)c1F)C(=O)Cn1c(=O)cnc2ccccc21,i,nt,9,nt,-3,-1,-10,nt,
CCCCCCCCCCCCN1[C@@H](CC(=O)O)c2cc(C(F)(F)F)ccc2S1(=O)=O,i,24,15,nt,4,2,104*,nt,
CCCN1CNC(=S)N(c2ccc(C)cc2C)C1,i,nt,4,-9,3,-2,-13,5,
Cc1cc(NC(=O)CSC2=NCCS2)no1,i,-25,1,-12,3,4,-6,-3,
CCC1(CC)Cc2ccccc2C(=O)N1,i,-10,9,1,4,6,-4,0,
O=C(CSCc1c(Cl)cccc1Cl)Nc1ccc2c(c1)OCCO2,i,nt,-1,1,-7,-7,11,-1,
O=C(Nc1cccnc1)c1scc2c1OCCO2,i,-21,-280,1,-9,-4,-6,0,
C[C@@H]1COC(=O)[C@H](CC(=O)OC(C)(C)C)C/C=C\C[C@@H](CC(=O)NCCO)C(=O)N1,nt,-9,-5,nt,4,0,9,nt,
CCOc1ccc(N2CC(C(=O)Nc3ccc(S(=O)(=O)NCC4CCCO4)cc3)CC2=O)cc1 (stereo not given),nt,6,6,-3,0,-2,-14,2,
COc1cc(OC)cc(C(=O)NCC(=O)OCC(=O)c2cc(C)n(Cc3ccco3)c2C)c1,i,-6,-4,86,-1,3,-7,-2,eIF4H FP inh retest=-6;PABP polyA inh retest=6
CCOCCCNC(=O)c1ccc2c(=O)n(CCCOCC)c(=S)[nH]c2c1,i,-14,-4,-1,8,-2,-5,-7,
CCOc1ccccc1C(=O)Nc1ccc(NC(=O)c2ccccc2)cc1,i,-18,12,1,0,4,7,7,
Cc1ccc(S(=O)(=O)N2CC(=O)N3CCN(CCN)C3C2)cc1 (stereo not given),nt,-21,3,nt,3,4,-17,nt,
COc1ccc(N2CCN(C(=O)Cc3ccc(-n4c(=O)[nH]c5ccccc5c4=O)cc3)CC2)cc1,i,-8,25,-2,4,-3,8,0,
O=S(=O)(c1ccccc1)N(CC(F)(F)F)c1ccc(C(O)(C(F)(F)F)C(F)(F)F)cc1,nt,-7,1,nt,-3,-11,nt,nt,
c1ccc(CNC2=NCCCCC2)cc1,i,-31,nt,-6,1,8,-2,3,
O=C(NC1CCCCCC1)C(=S)N1CCOCC1,i,nt,5,6,1,4,-7,-12,
CCOC(=O)N1CCC(NC(=O)CSCc2cnn(-c3ccccc3)c2-n2cccc2)CC1,i,1,nt,-2,-2,-1,-7,-1,
Cc1cc(C)nc(Nc2n[nH]c(-c3ccccc3Br)n2)n1,i,-28,nt,-15,-8,-6,-5,-1,
O=C1/C(=C/c2cccnc2)CC/C1=C\c1cccnc1,i,-23,-82,-2,-5,-5,27,-8,
CCNC(=O)CC1C(=O)N(c2ccc(C)cc2)C(=O)N1CCc1ccc(OC)c(OC)c1 (stereo not given),nt,11,-64,-10,2,3,-1,-4,
